From PubChem BioAssay
Rango release inh = inhibitors of RanGTP-induced Rango-importin beta complex dissociation; O95149+P62826; Biochemical FRET Rango-importin beta, RanGTP-induced dissociation; Potency, µM (highest dose often 46.1 µM), for the others: at the highest dose activity change, negative = inhibition; 340,000 compounds, 0.071% hits; AID 540253; active means falling FRET ratio curve, often poorly fitted, with flat reads before Ran was added; inconclusive means other falling curves, or compound fluorescence or quenching; inactive means flat or rising ratio curve;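 note: potency is the fitted concentration of half-maximal effect; % of control where 0% means no effect; nearly all actives have a fitted effect of over 45% in size; -100% = wells without RanGTP and RCC1; the record marks most hits as doubtful in a second field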
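Two FRET readings bracket the reaction: one 5 min after compound meets Rango–importin beta, another 45 min after RanGTP-RCC1 (0.6 uM Ran, 0.2 uM RCC1, 2 mM GTP) is added. Only the second defines inhibition.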
miR-21 FLuc = raises the signal of a miR-21 reporter; 340,000 tested, under 10 active; Potency, µM (doses to about 38.3 µM), without a hit: at the highest dose reporter change, positive = more light; HeLa miR-21 FLuc reporter, luciferase, 48 h; active = well fitted rising curve with a large enough effect; inconclusive = small, poorly fitted or top-dose-only effect; inactive = no such curve, though single readings can be large or run the other way;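 note: % of control where 0% means no effect; miR-21 action dims this reporter so a rising signal means less miR-21 action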
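Using DMEM plus 10% FBS, HeLa miR-21-FLuc cells are incubated with test compounds (final up to about 40uM) for 48 hours; firefly luciferase signal is then imaged following reagent-mediated lysis.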
Rango-impB inh = Rango-importin beta binding inhibition | Q14974 | Rango CFP/YFP FRET sensor + importin beta, 45 min | Potency, µM (series often up to 92.2 µM), for the others: top-dose inhibition of complex formation | 340,000 compounds, 0.031% hits; active = rising FRET ratio curve, often small or poorly fitted; inconclusive = mostly compound fluorescence or quenching in the first reads; inactive = flat curves in all reads;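 note: potency is the fitted concentration of half-maximal effect; 0% = DMSO wells and 100% = buffer wells lacking importin beta; nearly all actives have a fitted effect of over 15% in size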
Target sequence (Q14974 whole entry, looked up): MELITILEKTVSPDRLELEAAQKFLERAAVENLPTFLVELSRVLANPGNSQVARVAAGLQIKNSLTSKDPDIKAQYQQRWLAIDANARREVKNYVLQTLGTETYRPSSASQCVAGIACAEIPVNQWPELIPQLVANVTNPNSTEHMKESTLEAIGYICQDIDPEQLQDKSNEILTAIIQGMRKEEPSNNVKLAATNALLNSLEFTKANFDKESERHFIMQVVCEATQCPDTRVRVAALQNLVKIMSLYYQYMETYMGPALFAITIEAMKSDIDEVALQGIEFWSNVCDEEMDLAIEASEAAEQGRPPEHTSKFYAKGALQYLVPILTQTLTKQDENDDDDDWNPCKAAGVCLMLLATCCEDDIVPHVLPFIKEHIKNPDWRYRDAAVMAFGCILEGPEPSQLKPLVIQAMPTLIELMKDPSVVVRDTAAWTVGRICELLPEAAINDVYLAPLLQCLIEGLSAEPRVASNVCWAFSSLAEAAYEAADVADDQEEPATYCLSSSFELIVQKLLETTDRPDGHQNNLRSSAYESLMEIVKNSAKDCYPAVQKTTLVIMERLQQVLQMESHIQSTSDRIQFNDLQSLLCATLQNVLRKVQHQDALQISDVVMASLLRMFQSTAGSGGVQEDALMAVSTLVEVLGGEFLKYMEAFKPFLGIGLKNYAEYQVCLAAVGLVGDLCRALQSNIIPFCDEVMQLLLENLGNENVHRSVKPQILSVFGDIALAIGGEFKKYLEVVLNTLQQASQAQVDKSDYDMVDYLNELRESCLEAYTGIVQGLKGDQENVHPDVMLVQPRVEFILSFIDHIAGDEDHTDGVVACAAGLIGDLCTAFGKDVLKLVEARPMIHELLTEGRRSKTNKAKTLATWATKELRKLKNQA
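Inhibition scored from the CFP 486 nm/YFP 530 nm FRET ratio 45 min after adding 0.125 microM importin beta to 50 nM Rango biosensor preincubated 5 min with compound (room temperature, PBS with DTT, Tween-20, BSA). No-importin wells as positive control.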
GLA inh pH 4.5 = blocks human alpha-galactosidase A at pH 4.5 | P06280 | purified enzyme, 4-MU-alpha-Gal fluorescence, pH 4.5 | activity change, negative = inhibition, % at 105 µM | 230,000 tested, under 10 active; inconclusive = small, poorly fitted or top-dose-only inhibition, or a rising curve; inactive = flat fitted curve, though single readings scatter; no compound was filed as active;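 note: 0% = full activity with enzyme and -100% = basal without enzyme; dose as in the result columns while the protocol names 77 µM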
Active calls of the source: *; u = inconclusive; x = not tested or not shown; & = joins results of further samples. Not all compounds are listed; the hit share may differ from the screen's.

Results follow in this order: Rango release inh	miR-21 FLuc	Rango-impB inh	GLA inh pH 4.5
- CN1c2ccccc2Oc2ccccc21
 : 1%	1%	-4.8%	1
- CCOC(=O)c1c(-n2c(C)cc(/C=C3\C(=O)NC(=O)N(C)C3=O)c2C)sc2c1CCCC2
 : 1%	-3%	-0.4%	-3
- O=c1[nH]c(=O)n(-c2ccc(Br)cc2)c(O)c1C=NCCN1CCCCC1
 : -1%	2%	1.8%	-3
- COC(=O)C1=C(c2cccc(C#N)c2)C[C@@H]2CC[C@H]1N2C(=O)NCc1ccc(F)cc1
 : -1%	x	0.1%	x
- O=[N+]([O-])c1ccc(N2CCNCC2)cc1N1CCCCC1
 : 0%	-3%	1.8%	0
- COc1cccc(-n2c(O)c(C=NCc3ccc4c(c3)OCO4)c(=O)[nH]c2=O)c1
 : 12%	-3%	-1.8%	-4
- CC1CCN(S(=O)(=O)c2ccc(NN=C(C#N)C#N)cc2)CC1
 : x	-2%	x	-3
- O=[N+]([O-])c1ccc(Cl)cc1
 : -8%	x	-1.2%	x
- CCN1CCN(C(=O)COc2ccc(S(=O)(=O)N3CCOCC3)cc2Cl)CC1
 : -2%	9%	1.6%	x
- Cc1ccc(C(=O)Nc2ccc(-n3ccnc3P(=O)(O)c3ccccc3)cc2)cc1
 : -14%	-8%	-1.3%	6
- COc1cccc2c1N=C1CCCC3CN(C(C)=O)CCC123 (configuration not stated)
 : -9%	x	0.5%	x
- O=c1[nH]c(=O)n(-c2ccc(F)cc2)c(O)c1C=Nc1ccccc1N1CCCC1
 : u	-4%	u	-10
- CCc1cc(=O)oc2cc(OCC(=O)N3C[C@H]4C[C@@H](C3)c3cccc(=O)n3C4)ccc12
 : -9%	4%	9.4%	x
- COc1ccc(-c2nn(CCC#N)cc2C(=O)Nc2ccc(C(C)=O)cc2)cc1[N+](=O)[O-]
 : -3%	-14%	-0.3%	x
- OC[C@H]1O[C@@H](n2cnc3cc(Cl)c(Cl)cc32)[C@H](O)[C@@H]1O
 : 4%	x	-0.9%	x

Retrieved by structure from the entries so far, two records:
Results follow in this order: Rango release inh	miR-21 FLuc	Rango-impB inh	GLA inh pH 4.5
- COC(=O)C1=C(c2cccc(C#N)c2)C[C@@H]2CC[C@H]1N2C(=O)NCc1ccc(F)cc1
 : -1%	x	0.1%	x
- O=[N+]([O-])c1ccc(Cl)cc1
 : -8%	x	-1.2%	x

The list goes on:
Results follow in this order: Rango release inh	miR-21 FLuc	Rango-impB inh	GLA inh pH 4.5
- COc1ccc(C2c3c(nc(C)[nH]c3=O)Oc3c2c(=O)oc2ccccc32)cc1 (configuration not stated)
 : 2%	-2%	-0.3%	-1
- Nc1c2c(nc3sc4c(c13)CCCC4)CCCCC2
 : 15%	-56%	-0.2%	-2
- CCn1c(SCC(=O)Nc2nncs2)nnc1-c1ccco1
 : -7%	0%	-2.4%	x
- Cc1noc(C)c1CSc1nc2cc(S(=O)(=O)N3CCOCC3)ccc2o1
 : -3%	-5%	2.2%	-5
- CN(C)P(=O)(NC(=O)c1cccn1C)N(C)C
 : 4%	1%	-5.5%	-2
- CC1(C)CC(=O)C2=C(C1)NC(=O)C21C(C(=O)OC(C)(C)C)=C(N)Oc2ccc(Br)cc21 (configuration not stated)
 : -8%	-1%	0.3%	-19
- COC(=O)C(O)(c1ccc(NC(=S)NC(=O)c2ccccc2)cc1)C(F)(F)F (configuration not stated)
 : -9%	-21%	0.1%	-4
- CC(C)Cc1nnc(NC(=O)CCC(=O)N2CCC3(CC2)OCCO3)s1
 : -15%	-3%	0.6%	1
- COC(=O)C1=CO[C@@H](C)[C@H]2CN3CC[C@]4(C(=O)Nc5ccccc54)[C@@H]3C[C@H]12
 : -16%	x	0.7%	x
- O=P(NS(=O)(=O)c1ccccc1)(Oc1ccccc1)Oc1ccccc1
 : 0%	-4%	-0.4%	-8
- NC(N)=N/N=C/c1cn(-c2ccccc2)nc1-c1cccs1
 : u	u	18%	8
- CNCC[C@H](Oc1ccc(C(F)(F)F)cc1)c1ccccc1
 : 10%	x	0.5%	2&-18&-4
- O=C1NCCCCC1(Cl)Cl
 : 7%	x	4.7%	x
- C=CCN1C(=O)NC(=O)/C(=C/c2c(CCN(C)C(=O)c3ccccc3)cc3c(c2OC)OCO3)C1=O
 : 2%	-1%	-0.6%	x
- Nc1cc2nc3ccccc3nc2cc1N
 : u	-8%	u	-3

As entered above.
In Rango-impB inh, COC(=O)C1=CO[C@@H](C)[C@H]2CN3CC[C@]4(C(=O)Nc5ccccc54)[C@@H]3C[C@H]12 has the entry 0.7%
In miR-21 FLuc, CC1(C)CC(=O)C2=C(C1)NC(=O)C21C(C(=O)OC(C)(C)C)=C(N)Oc2ccc(Br)cc21 (configuration not stated) has the entry -1%

(more compounds)
Results follow in this order: Rango release inh	miR-21 FLuc	Rango-impB inh	GLA inh pH 4.5
- CSc1ccc(C(=O)C2CCCN(Cc3cnc(SC)nc3)C2)cc1 (configuration not stated)
 : -10%	-3%	0.4%	6
- CCn1nc(-c2ccccc2)nc2c(=O)n(C)c(=O)nc1-2
 : u	u	15%	-1
- Fc1cccc(CCNCc2ccccn2)c1
 : 1%	-10%	-0.1%	13
- CC(Oc1ccc(-c2ccccc2)cc1)C(=O)O (configuration not stated)
 : -10%	-1%	0.1%	-6
- C=CCn1c(O)c(C(C)=Nc2ccc(N(C)C)cc2)c(=O)[nH]c1=O
 : 1%	-9%	1.2%	2
- Cc1ccc(OCC(=O)N2CCN(Cc3cccnc3)CC2)cc1
 : -9%	1%	1.5%	-7
- CCn1ccnc1CN1CCCC(C(=O)c2cc(F)ccc2OC)C1 (configuration not stated)
 : 10%	5%	-2.6%	u
- NP(=O)(OCCCc1ccccc1)Oc1ccc(Cl)cc1 (configuration not stated)
 : -10%	0%	-0.4%	x
- COc1ccc(C(=O)N/N=C/C23CC[C@@H](O)CC2(O)CC[C@@H]2[C@@H]3CCC3(C)C(C4=CC(=O)OC4)CCC23O)cc1 (some centres not stated)
 : 5%	u	-0.8%	-9
- COc1cccc(Oc2c(C)oc3cc(OC(=O)N(C)C)ccc3c2=O)c1
 : -5%	-8%	3.8%	x
- COc1ccc(CC(C)Nc2cccc(F)c2)cc1 (configuration not stated)
 : -14%	-2%	-0.3%	x
- Nc1cnn(-c2ccccc2)c(=O)c1Cl
 : 0%	-7%	-3.6%	x
- COc1ccc(N2C(=O)NC(=O)/C(=C\c3ccccc3[N+](=O)[O-])C2=O)cc1
 : 6%	-2%	2.9%	9
- COc1ccc(OCC(=O)N2CCN(C/C=C/c3ccccc3)CC2)cc1
 : u	-1%	-0.7%	1
- CC/C(=N\NC(=O)c1ccccc1)c1c(O)n(Cc2ccccc2)c(=O)[nH]c1=O
 : -14%	-58%	-4.0%	-12
- O=C1C=C2C=C[C@@H]3CC2(O1)[C@H]1CCCCN31
 : 16%	x	2.0%	x
- O=C1NC(=O)N(c2ccccc2)C(=O)/C1=C/c1coc2ccc(O)cc2c1=O
 : 6%	-2%	-0.9%	10
- COc1cc2c(cc1OC)[C@H]1C(=O)c3ccc4c(c3O[C@H]1CO2)C[C@@H](C(C)(C)O)O4
 : u	x	2.6%	x
- BrCC(Br)(Br)Br
 : 27%	x	0.9%	x
- c1ccc(Cn2ccnc2)cc1
 : -5%	-6%	-0.7%	-13
- COC(=O)C1=C(c2cc3ccccc3s2)C[C@@H]2CC[C@H]1N2C(=O)NC1CCCCC1
 : 0%	x	-0.4%	x
- COC(=O)C1=C(c2ccc(OC)c(OC)c2)C[C@@H]2CC[C@H]1N2C(=O)NCCOc1ccccc1
 : 1%	x	-0.7%	x
- CN1C(=O)C(C)(C2=CCCCC2)C(=O)NC1=S (configuration not stated)
 : 1%	x	-0.8%	x
- O=S(=O)(c1ccc(F)cc1)N1CN2CCN(C2)C1
 : 6%	9%	-2.5%	x
- COc1ccc(C(=O)C2CCCN(C3CSCCSC3)C2)c(C)c1 (configuration not stated)
 : -14%	1%	-1.8%	2
- CN(C)c1ccc(N=Cc2c(O)n(CCC3=CCCCC3)c(=O)[nH]c2=O)cc1
 : u	1%	u	-4
- C(=NN1CCCCCC1)c1c[nH]c2ccccc12
 : -2%	x	-1.8%	x
- O=C(NC(=O)N1CCC2(CC1)OCCO2)c1ccc(Cl)cc1
 : 0%	-1%	2.3%	2
- COC(=O)C1=C(c2cc3ccccc3s2)C[C@@H]2CC[C@H]1N2C
 : 4%	x	1.7%	x
- COC(=O)C1=C(c2c(C)noc2C)C[C@@H]2CC[C@H]1N2C(=O)NCCCOC(C)C
 : 7%	x	-0.4%	x

Structures above that contain a CF3 group:
Results follow in this order: Rango release inh	miR-21 FLuc	Rango-impB inh	GLA inh pH 4.5
- COC(=O)C(O)(c1ccc(NC(=S)NC(=O)c2ccccc2)cc1)C(F)(F)F (configuration not stated)
 : -9%	-21%	0.1%	-4
- CNCC[C@H](Oc1ccc(C(F)(F)F)cc1)c1ccccc1
 : 10%	x	0.5%	2&-18&-4

More results
Results follow in this order: Rango release inh	miR-21 FLuc	Rango-impB inh	GLA inh pH 4.5
- CC1=CC(=O)NP(=O)(Oc2ccc3ccccc3c2)N1 (configuration not stated)
 : 8%	-5%	3.2%	-7
- CN(C)CCN=Cc1c(O)n(Cc2ccc3c(c2)OCO3)c(=S)[nH]c1=O
 : -8%	1%	-0.5%	-3
- O=C(Cc1ccccc1)OCCNC(=O)c1cccnc1
 : 5%	0%	1.4%	0
- COc1cc(/C=C2/C(=O)NC(=O)N(c3ccccc3)C2=O)ccc1O
 : -25%	1%	u	1
- CC1CN=C(Nc2ccccc2)S1 (configuration not stated)
 : 27%	-8%	1.4%	0
- COC(=O)C1=C(c2cc3ccccc3o2)C[C@@H]2CC[C@H]1N2C(=O)N1CCOCC1
 : 9%	x	1.3%	x
- O=C(COC(=O)Cc1ccccc1)Nc1ccc(SC(F)F)cc1
 : -2%	-6%	5.2%	-3
- Cc1cccc(CN2CCN(Cc3ccc(Cl)cc3)CC2)c1
 : 1%	-1%	3.8%	-24
- COC(=O)C1=C(c2cc3ccccc3s2)C[C@@H]2CC[C@H]1N2C(=O)N1CCOCC1
 : -20%	x	u	x
- C[C@]12CC[C@H](O)C[C@H]1CC[C@@H]1[C@@H]2C[C@@H](O)[C@]2(C)[C@@H](C3=CC(=O)OC3)CC[C@]12O
 : -7%	x	-1.9%	x
- CCn1c(O)c(/C(C)=N/N2CCCCC2c2cccnc2)c(=O)[nH]c1=S (configuration not stated)
 : -1%	0%	-1.6%	-1
- CN1C(=O)C(C2(C#N)CCCCC2)C(=O)N(C)C1=O
 : 9%	-4%	4.1%	5
- O=c1c2ccccc2nc(/C=C/c2ccccc2F)n1-c1ccccc1O
 : 2%	-14%	4.2%	x
- CC(C)=CCN1CC[C@@]2(C)c3cc(O)ccc3CC1C2C (some centres not stated)
 : 11%	x	-0.3%	x
- COc1cc2c(cc1O)C[C@H]1c3c(cc(O)c(OC)c3-2)CCN1C
 : 16%	x	2.8%	-3
- CCC(=Nc1ccccc1NC(C)=O)c1c(O)n(C)c(=O)n(C)c1=O
 : -1%	-7%	3.9%	2
- COc1ccc(NC(=O)c2cn(CCC#N)nc2-c2cccc([N+](=O)[O-])c2)cc1
 : -1%	0%	-0.6%	4
- O=c1[nH]c(=O)n(-c2ccccc2F)c(O)c1/C=C1\C=Nc2ccccc21
 : 7%	13%	-4.6%	x
- O=C(CSc1ccccc1)N1CCC2(CC1)OCCO2
 : 2%	-48%	5.4%	-3
- CCOC(=O)c1c(N)n(CCN2CCCCC2)c2nc3ccccc3nc12
 : u	-3%	u	18
- CCCC1=C(C(=O)OCC)C2(C(=O)Nc3ccc(C)cc32)C(C#N)=C(N)O1 (configuration not stated)
 : 0%	-4%	1.6%	0
- CCN(CC)C(=O)c1ccc(N2C(=O)C3CC=C(Cl)CC3C2=O)cc1 (configuration not stated)
 : u	0%	-0.7%	1
- COc1ccccc1C1=NCc2nnc(C)n2-c2ccc(Cl)cc21
 : 9%	5%	-1.9%	1
- COc1ccc(C2=NCC(=S)Nc3ccc(Cl)cc32)cc1Cl
 : 1%	-2%	-2.6%	-5
- CCN(C(C)=O)c1cccc(-c2ccnc3c(C#N)cnn23)c1
 : x	-2%	x	11
